FGF22 binding = binders of human FGF22 protein, primary screen, FGF22 synaptogenesis inhibitor project, biophysical, thermal shift, single point. calls only at 9.99 µM. recombinant FGF22 thermal shift, SYPRO orange fluorescence; percent of sucrose octasulfate shift, DMSO zero. actives 1.5% (n = 340,000). Fibroblast growth factor 22 (Homo sapiens), Q9HCT0;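 active means melting point raised past a set limit in the mean and every replicate; three in four hits are not shown here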
Target sequence (Q9HCT0 whole entry, looked up): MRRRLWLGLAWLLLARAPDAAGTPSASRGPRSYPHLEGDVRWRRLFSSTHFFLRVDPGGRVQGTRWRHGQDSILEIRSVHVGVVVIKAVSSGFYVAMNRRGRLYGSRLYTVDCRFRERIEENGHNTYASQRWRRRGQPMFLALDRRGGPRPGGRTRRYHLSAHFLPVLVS
HNF4A DNA FP = change in binding of human HNF4A to DNA, primary screen, biochemical, fluorescence polarization, FITC-DNA; Hepatocyte nuclear factor 4-alpha (Homo sapiens), P41235; 1 h; activity change, % at 10 µM; actives 0.3% (n = 360,000); AID 1224865, 2016; in the data active means activity change above about 30%, passing the limit was not always enough;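 further: controls were the assay level and a saturating level of protein; the project sought stronger binding though the title names inhibitors; some compounds called inactive have numbers as strong as hits; positive values seem to mean higher polarization but the record does not say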
Target sequence (P41235 whole entry, looked up): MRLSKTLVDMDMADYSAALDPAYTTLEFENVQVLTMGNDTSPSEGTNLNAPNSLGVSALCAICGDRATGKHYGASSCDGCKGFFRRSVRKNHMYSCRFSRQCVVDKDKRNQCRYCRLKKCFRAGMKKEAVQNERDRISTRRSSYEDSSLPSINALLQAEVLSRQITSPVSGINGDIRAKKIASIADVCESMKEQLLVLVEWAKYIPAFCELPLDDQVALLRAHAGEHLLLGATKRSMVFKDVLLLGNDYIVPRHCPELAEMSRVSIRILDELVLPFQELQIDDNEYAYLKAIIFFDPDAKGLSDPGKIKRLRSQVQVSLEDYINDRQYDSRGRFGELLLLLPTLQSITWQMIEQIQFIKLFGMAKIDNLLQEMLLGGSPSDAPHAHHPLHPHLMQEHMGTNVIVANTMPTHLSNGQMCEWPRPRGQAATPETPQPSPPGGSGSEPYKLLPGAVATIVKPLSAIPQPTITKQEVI
Numbers without * were called inactive; i = inactive; + = active, no number; ! = not active in a repeat. The list is partial; rates above refer to the full screens.

SMILES	FGF22 binding	HNF4A DNA FP
CCCc1ccc(C(O)c2ncc(-c3ccccc3C)[nH]2)cc1 (stereo unspecified)	i	-3.1
CCN1C(=O)[C@H]2[C@@H](c3ccc(OC)cc3)N[C@]3(CCCN(Cc4ccccc4)C3=O)[C@H]2C1=O	i	-4.7
CCOC(=O)C1CCCN(C(=O)c2ccc(OC)cc2OC)CC1 (stereo unspecified)	i	0.7
CC1(c2nnnn2-c2ccc3c(c2)OCCO3)CCC(=O)N1Cc1cccnc1 (stereo unspecified)	i	0.7
COC(=O)[C@@]1(Sc2ccc(C)cc2)CC(=O)N(C(=O)CCc2ccccc2)[C@@H]1c1ccccc1	i	0.7
COc1cc(OC)cc(OC)c1	i	-3.3
CNC[C@H]1OCCCC[C@H](C)Oc2ccc(NC(=O)CCCN(C)C)cc2C(=O)N([C@H](C)CO)C[C@@H]1C	i	29
Cc1cc(C)n2c(Nc3c(C)cccc3C)c(-c3ccccn3)nc2n1	i	23
CCC(=O)N1CCC1(C)C(=O)Nc1cccc(Oc2ccccc2)c1 (stereo unspecified)	i	3.5
COc1ccc(CNC(=O)c2sc(=O)n(Cc3cc(C(C)=O)ccc3OC)c2C)cc1	i	-5.9
CC(C)(C)c1ccc(OCCCC(=O)Nc2nnc(C3CC3)s2)cc1	i	-2.3
COc1ccccc1Nc1cc(C)nc2c(C)cccc12	i	-0.9
O=C(NC1CCCCC1)C1c2ccccc2OCC(=O)N1CCc1c[nH]c2ccccc12 (stereo unspecified)	i	-6.0
OC[C@@H]1CN(Cc2cccc(C(F)(F)F)c2)C[C@H](n2cnc3c(NCc4ccncc4)ncnc32)O1	i	4.1
Cc1ccc(F)cc1-c1cc2nc(NCCCN(C)C)n(C)c(=O)c2s1	i	2.3
COc1ccc(CN(C)C(=O)c2ccc(OCC(=O)Nc3cccc(C(F)(F)F)c3)c(OC)c2)cc1	i	3.0
CC(O)(c1ccccc1)c1nc(-c2csc3ccccc23)cs1 (stereo unspecified)	i	4.3
CCCc1cc(=O)oc2cc(OCC(=O)N3CC[C@@]4(O)CCCC[C@H]4C3)ccc12	i	-0.7
Cc1noc(C)c1NC(=O)Nc1ccc2c(c1)C(=O)N([C@H](C)CO)C[C@H](C)[C@H](CN(C)C(=O)NC1CCCCC1)OCCCC[C@@H](C)O2	i	0.9
O=C(NCC(=O)N1CCN(C(c2ccccc2)c2ccccc2)CC1)c1ccccc1Br	i	-4.5
CCc1nc2c(OCc3ccc(F)c(F)c3)cccn2c1N(C)C(=O)c1ccc(C)cc1	i	2.3
CCCCC(=O)N(C)c1c(CC)nc2c(OCc3ccc(C(F)(F)F)cc3)cccn12	i	-1.8
Cn1c(=O)c2c(ncn2CC(=O)OCC(=O)Nc2cccc(C#N)c2)n(C)c1=O	i	1.4
CCN(CC)CCNc1cccc2sc3ccccc3c(=O)c12	i	6.7
COc1ccc(C(C)=NOC(=O)c2c(-c3ccccc3Cl)noc2C)cc1CN1CCOCC1	i	-1.0
CCc1nc2c(OCc3cccc(OC)c3)cccn2c1N(C)C(=O)C(C)C	i	-0.3
O=C(C[C@H]1C[C@@H]2c3cc(NC(=O)c4ccc5c(c4)OCO5)ccc3O[C@@H]2[C@H](CO)O1)NCc1cc(F)ccc1F	i	-1.4
Cc1oc(-c2cccs2)cc1C(=O)N1CCC(C)(C(=O)NS(=O)(=O)C2CC2)C1 (stereo unspecified)	i	1.9
OC(c1cccnc1)c1nc(-c2cccc(F)c2)cs1 (stereo unspecified)	i	-1.5
NC(Cc1ccc(Cl)cc1)c1csc(Nc2nccc(C(F)(F)F)n2)n1 (stereo unspecified)	i	-2.3

Looked up by compound from the list above, 4 records:
SMILES	FGF22 binding	HNF4A DNA FP
O=C(C[C@H]1C[C@@H]2c3cc(NC(=O)c4ccc5c(c4)OCO5)ccc3O[C@@H]2[C@H](CO)O1)NCc1cc(F)ccc1F	i	-1.4
O=C(NCC(=O)N1CCN(C(c2ccccc2)c2ccccc2)CC1)c1ccccc1Br	i	-4.5
CCCc1cc(=O)oc2cc(OCC(=O)N3CC[C@@]4(O)CCCC[C@H]4C3)ccc12	i	-0.7
CCc1nc2c(OCc3ccc(F)c(F)c3)cccn2c1N(C)C(=O)c1ccc(C)cc1	i	2.3

Going on with the list:
SMILES	FGF22 binding	HNF4A DNA FP
Cc1ccc(CNc2nc(NCc3ccccc3)nc3ccsc23)c(C)c1	i	-2.8
Cc1cc(C)n2c(NC3CCCCC3)c(-c3ccccn3)nc2n1	i	3.4
CCCCCCCC1=NN(c2ccc(S(=O)(=O)O)cc2)C(=O)C1N=O (stereo unspecified)	i	-1.7
O=C1Nc2ccccc2-c2nnnn2C1N1CCCC1 (stereo unspecified)	i	-2.2
COc1ccc(-c2cnc3c(NC(C)=O)cc(-c4ccccc4CN(C)C)cn23)cc1OC	i	-2.2
OC[C@@H]1CN(Cc2ccccc2)C[C@H](n2cnc3c(N4CCCC4)ncnc32)O1	i	-0.6
O=[N+]([O-])c1cccc(N=NNc2cccc([N+](=O)[O-])c2)c1	i	4.2
O=c1cc(O)cc2n1CCC2	i	-1.0
c1cc(-c2cc3nc(NCC4CC4)ccn3n2)ccc1OCCN1CCOCC1	i	2.3
O=C(NCCS(=O)(=O)NCc1cccs1)c1ccccc1	i	0.8
Cc1ccc(S(=O)(=O)CCC(=O)Nc2cc(C)on2)cc1	i	-0.3
O=C(NCc1ccccc1)C1C(=O)Nc2ccccc2C(=O)N1Cc1ccccc1 (stereo unspecified)	i	-2.1
CC1(C)CN(CCc2ccccc2)C(=O)[C@H]1CC(=O)Nc1ccccc1	i	3.6
Cc1cc(Cl)ccc1C(O)c1ncc(-c2cccc3ccccc23)[nH]1 (stereo unspecified)	i	4.4
O=C1CC(=Nc2ccc([N+](=O)[O-])cc2)NN1c1c(Cl)cc(Cl)cc1Cl	i	-1.4

One compound at a time (already shown).
Profile of Cc1ccc(F)cc1-c1cc2nc(NCCCN(C)C)n(C)c(=O)c2s1 : FGF22 binding: i; HNF4A DNA FP: 2.3
Profile of COc1cc(OC)cc(OC)c1 : FGF22 binding: i; HNF4A DNA FP: -3.3
Profile of CCCc1ccc(C(O)c2ncc(-c3ccccc3C)[nH]2)cc1 (stereo unspecified) : FGF22 binding: i; HNF4A DNA FP: -3.1

Further compounds:
SMILES	FGF22 binding	HNF4A DNA FP
Cc1cc(OCC(=O)Nc2nccs2)c2c(C)c(C)c(=O)oc2c1	i	-0.7
CCc1ccc(/C=C2\SC(=S)N(CCCC(=O)N3CCCC3)C2=O)cc1	i	2.1
CC1(C(=O)NS(=O)(=O)c2ccc(Br)cc2)CCN1C(=O)Cc1cccs1 (stereo unspecified)	i	3.3
Cn1c(NCc2cccnc2)nc2cc(-c3ccc(C(=O)N4CCOCC4)cc3)sc2c1=O	i	1.9
NC(CCc1ccccc1)c1csc(Nc2ccc(C(=O)c3ccccc3)cc2)n1 (stereo unspecified)	i	1.2
O=C(NCc1cccnc1)c1cc(C2CCCCN2C(=O)c2ccc3c(c2)CCO3)on1 (stereo unspecified)	i	-2.0
CCCCN(C(=O)COC(=O)c1sccc1C)c1c(N)n(CCC)c(=O)[nH]c1=O	i	-1.7
Cc1cc(C)c2c(CN3CCCC3)cc(=O)oc2c1	i	2.5
Cc1ccccc1S(=O)(=O)N1C[C@@H]2C(C(=O)C[C@@H]3C(=O)N(C)C(=O)[C@@H]32)[C@@H]1c1ccc(Cl)cc1 (stereo partly specified)	i	-1.3
O=C(N/C(=C/c1ccc(F)cc1)C(=O)N1CCOCC1)c1ccco1	i	4.7
CC(C)(C)c1ccc(C(=O)NCCC(=O)NCc2ccc(F)cc2)cc1	i	-1.1
CCC(C(=O)NC1CCCC1)n1c(-c2cc3ccccc3[nH]2)nc2ccccc21 (stereo unspecified)	i	-3.7
CCOC(=O)[C@]12CCCC=C1N(CCc1ccc(OC)c(OC)c1)C(=O)[C@H](CC(=O)NCCCCc1ccccc1)C2	i	-5.2
C[C@@H](NC(=O)[C@@H]1CCCN1C(=O)[C@@H]1CCCN1C(=O)c1ccc(Cl)cc1)c1ccccc1	i	5.0
CNc1cncc(-c2cnn(CC(C)C)c2)n1	i	-1.2

In the list so far, 2 have a furan ring, fused or not:
SMILES	FGF22 binding	HNF4A DNA FP
Cc1oc(-c2cccs2)cc1C(=O)N1CCC(C)(C(=O)NS(=O)(=O)C2CC2)C1 (stereo unspecified)	i	1.9
O=C(N/C(=C/c1ccc(F)cc1)C(=O)N1CCOCC1)c1ccco1	i	4.7

Next section:
SMILES	FGF22 binding	HNF4A DNA FP
COc1ccc(N2CCN(C(=O)C(=O)c3ccc(F)cc3)CC2)cc1	i	2.2
O=C(C(=O)N1CCC(c2ccccc2)CC1)c1ccccc1	i	0.0
CCOC(=O)N(C)c1c(CC)nc2c(OCc3ccccc3OC)cccn12	i	-2.0
CCc1nc2ccc(C(=O)NCCOc3ccc(OC)cc3)cn2c1N(CC)Cc1cccc(Br)c1	i	-3.5
C[C@@H]1CN([C@H](C)CO)C(=O)CCCn2nncc2CO[C@H]1CN(C)C(=O)c1ccc(N2CCN(C)CC2)cc1	i	1.4
COc1ccc(CN2CCC(C(=O)NC(c3ccc4c(c3)OCO4)c3ccccn3)CC2)cc1 (stereo unspecified)	i	-2.8
C[C@H](CO)N1C[C@H](C)[C@@H](CN(C)C(=O)OCc2ccccc2)OCc2cn(nn2)CCCC1=O	+!	-1.1
CCN(CC)C(=O)C1=C(C)N(CCCOC)C(=O)C(CC(=O)NCCCN(C)C)C1 (stereo unspecified)	i	-0.2
O=C(c1cc2ccccc2o1)N1CCN(Cc2nc3ccccc3s2)CC1	i	2.4
CC(=O)c1cccc(-c2ccnc3c2CC(C(=O)Nc2ccc4c(c2)OCO4)O3)c1 (stereo unspecified)	i	4.5
COc1cccc(-c2ccc3c(c2)N(Cc2ccc(F)cc2)C(=O)C(C)S3)c1 (stereo unspecified)	i	-0.7
Cc1cc(N2CCOCC2)nc(N2CCOCC2)c1C#N	i	-4.7
COc1ccc(-c2cc3nc(C)cc(N4CCN(C(=O)c5ccco5)CC4)n3n2)cc1	i	-6.2
O=C1NC[C@H](CCCCN2C[C@H](Cc3ccccc3)N(CCC3CCCCC3)C(=O)C2=O)N(CCc2ccccc2)C1=O	+	2.7
CCCCc1c(-c2ccccc2OC)ncn1CCc1ccccc1	i	-1.2

In the list so far, 2 have a nitro group on carbon.
SMILES	FGF22 binding	HNF4A DNA FP
O=[N+]([O-])c1cccc(N=NNc2cccc([N+](=O)[O-])c2)c1	i	4.2
O=C1CC(=Nc2ccc([N+](=O)[O-])cc2)NN1c1c(Cl)cc(Cl)cc1Cl	i	-1.4

New compounds follow.
SMILES	FGF22 binding	HNF4A DNA FP
O=C(c1ccccc1F)N1CCCC(N2CCN(Cc3ccc4c(c3)OCO4)CC2)C1 (stereo unspecified)	i	1.0
c1cc(-c2ccc(N3CCOCC3)cc2)n2ccnc2c1	i	-4.8
CC(=O)C1(O)CCC2C3CC(C)C4=CC(=O)CCC4(C)C3CCC21C (stereo unspecified)	i	4.2
CCCOc1ccc(F)cc1-c1cc(C(=O)Nc2ccc(OC)cc2C)[nH]n1	i	4.8
COc1ccc(CN2C(=O)CN(S(C)(=O)=O)CC2(C)C(=O)Nc2ccc3c(c2)OCCO3)cc1OC (stereo unspecified)	i	-2.5
CCOC(=O)[C@@H](NC(=O)/C=C/[C@H]1O[C@@H](n2ccc(=O)[nH]c2=O)[C@H](O)[C@@H]1O)C(C)C	i	1.9
COc1ccc2nc3n(c(=O)c2c1)-c1cc2ccccc2cc1C(=O)NC3Cc1ccccc1 (stereo unspecified)	i	-3.8
Cn1ccc2c(-c3cncc4ccccc34)cc3c(c21)C1CCC3O1 (stereo unspecified)	i	5.5
COc1ccc(-c2ccccc2)cc1NC(=O)C1(C)CCN1C(=O)C(C)C (stereo unspecified)	i	0.6
COc1ccccc1NC(=O)N(C)C[C@@H]1OCc2cn(nn2)CCCC(=O)N([C@H](C)CO)C[C@H]1C	i	3.7
Cc1ccc2nc(-c3ccccc3)c(Cc3cccc(Cl)c3)n2c1	i	3.4
CC(C)(C)NC(=O)C1C(c2ccccc2)=Nc2ccccc2N1C(=O)c1ccc(C(F)(F)F)cc1 (stereo unspecified)	i	-2.0
CCOC1=C2[C@@H](CN(S(=O)(=O)c3ccc(C)cc3)[C@H]2c2ccccc2F)[C@H]2C(=O)N(Cc3ccccc3)C(=O)[C@H]2C1	i	1.1
O=C(NCc1ccccc1)C1c2ccccc2OCC(=O)N1Cc1ccc2c(c1)OCO2 (stereo unspecified)	i	1.4
O=C(COc1ccc(F)cc1)Nc1nc(-c2cccnc2)cs1	i	-11
O=C(C[C@H]1C=C[C@@H](NC(=O)Cc2cccnc2)[C@@H](CO)O1)NCc1ccc2c(c1)OCO2	i	2.7
COCCNC(=O)C1(C)CCCN(C(=O)c2cc(OC)c(OC)c(OC)c2)C1 (stereo unspecified)	i	0.7
CC1(C(=O)Nc2ccccc2F)CCN1C(=O)Cc1ccc(-c2ccccc2)cc1 (stereo unspecified)	i	-2.6
Cn1ccc2c(N3CCOCC3)cc3c(c21)C1CCC3O1 (stereo unspecified)	i	4.3
CCCS(=O)(=O)NC(=O)C1(C)CCN(C(=O)c2c(-c3ccccc3)noc2C)C1 (stereo unspecified)	i	-0.9
CCc1nc2ccc(C(=O)NCCc3c[nH]c4ccccc34)cn2c1N(C)CCCc1ccccc1	i	1.1
